Bioassay records (PubChem BioAssay)
VACV mCherry inh: vaccinia inhibition (mCherry reporter); Vaccinia virus mCherry reporter infection, fluorescence; about a quarter of the inactives have no number; Potency, µM (doses to about 36.5 µM), for inactives: at the top dose activity change, negative = inhibition, actives largely listed as inhibitors; 310,000 tested, 0.63% active; active = well fitted inhibition curve with a large enough effect; inconclusive = small, poorly fitted or top-dose-only effect; inactive = no such curve, though single readings can be large or run the other way; tested in A549 cells; also: nearly all actives have a fitted effect of over 35% in size; inactives centre near -10
Vaccinia Venus: inhibitors of vaccinia virus (Venus reporter). Vaccinia virus Venus reporter expression, fluorescence. 330,000 tested, 0.46% active. AID 720580. Potency, µM (top dose mostly 36.5 µM), inactives show top-dose activity change, negative = inhibition, most hits filed as inhibitors; active means well fitted inhibition curve with a large enough effect; inconclusive means small, poorly fitted or top-dose-only effect; inactive means no such curve, though single readings can be large or run the other way; tested in A549 cells; also: nearly all actives have a fitted effect of over 30% in size; inactives centre near -10
Numbers without * were called inactive; & = joins results of further samples; [ ] = dose if it differs, or a comment. % is scaled to controls: 0 for no effect and ±100 for the full control effect; potency is read from the fitted curve at half-maximal effect.

Results for C(=C\c1ccccc1)/CN1CCN(C(c2cccs2)c2nnnn2-c2ccc3c(c2)OCCO3)CC1 (stereo unspecified) ?
VACV mCherry inh: inactive; Vaccinia Venus: -6.8%

Results for CCC(=O)N1c2nc(C(C)C)nn2C2(CCCCC2)[C@@H]2CCCC[C@@H]21 ?
VACV mCherry inh: -6.1%; Vaccinia Venus: -9.4%

How did CCC(=O)[C@@H](C)[C@@H](O)[C@H](C)C[C@@H](C)C1OC(=O)C[C@@]2(O)CC=C(C)C(O2)C(C)=CCCC[C@H](O[C@H]2C[C@@H](OC(N)=O)[C@H](O)[C@@H](C)O2)C=C[C@H](C)C[C@H]1C (stereo partly specified) do in these assays?
VACV mCherry inh: inconclusive; Vaccinia Venus: inconclusive

What do the screens show for `Cc1c(NC(=O)c2ncn[nH]2)cccc1-c1nc2ccccc2s1`?
VACV mCherry inh: inactive; Vaccinia Venus: -7.9%

How did CNc1cc(N2CCCCCC2)ccc1[N+](=O)[O-] do in these assays?
VACV mCherry inh: -14.0%; Vaccinia Venus: -25.7%

What do the screens show for `COc1cccc(C(=O)NNC(=O)C(=O)Nc2cccc3ccccc23)c1`?
VACV mCherry inh: -9.4%; Vaccinia Venus: -0.1%

Results for COc1ccccc1N1CCN(c2cc(N3CCCC3)nc(C)n2)CC1 ?
VACV mCherry inh: inconclusive; Vaccinia Venus: -25.9%

Results for CCCC1(C)C(C#N)C(=O)NC(=O)C1C#N (stereo unspecified) ?
VACV mCherry inh: -20.8%; Vaccinia Venus: 5.0%

How did CC(C)c1nnc(NC(=O)CCN2C(=O)c3ccccc3C2=O)s1 do in these assays?
VACV mCherry inh: -11.6%; Vaccinia Venus: -4.0%

What do the screens show for `Cc1ccc(S(=O)(=O)N/N=C/c2ccc(OCC(=O)N3CCOCC3)cc2)cc1`?
VACV mCherry inh: 2.8%; Vaccinia Venus: -0.5%

How did O=C(COC(=O)c1ccc(Cl)c(S(=O)(=O)N2CCCCC2)c1)NC1CCCCC1 do in these assays?
VACV mCherry inh: -16.3%; Vaccinia Venus: -9.9%

What do the screens show for `CCOc1ccc(-n2c(C)nc3cc(C(=O)NCc4ccc(C)cc4)ccc32)cc1`?
VACV mCherry inh: -7.7%; Vaccinia Venus: -7.4%

What do the screens show for `O=C(c1cccc(S(=O)(=O)NCc2ccccc2)c1)N1CCCC(C(F)(F)F)C1` (stereo unspecified)?
VACV mCherry inh: inactive; Vaccinia Venus: -5.6%

What do the screens show for `COc1cc(NC(=O)Cn2cc(S(=O)(=O)c3ccccc3)c(=O)c3ccccc32)cc(OC)c1`?
VACV mCherry inh: -5.6%; Vaccinia Venus: -0.5%

How did Cc1c(C)n2c(SCC(=O)N3CC(C)OC(C)C3)nnc2[nH]c1=O (stereo unspecified) do in these assays?
VACV mCherry inh: -13.4%; Vaccinia Venus: 2.3%

Results for COc1ccc(S(=O)(=O)NCC(=O)NCc2cc(=O)n(C)c(=O)n2C)cc1 ?
VACV mCherry inh: inactive; Vaccinia Venus: -7.2%

Results for CC1=C(C(=O)N2CCOCC2)C(c2ccc(C)cc2)NC(=S)N1 (stereo unspecified) ?
VACV mCherry inh: -2.1%; Vaccinia Venus: -9.4%

What do the screens show for `COc1cc(OC)c(OC)cc1/C=C1\SC(N2CCCCC2)=NC1=O`?
VACV mCherry inh: -22.2%; Vaccinia Venus: inconclusive

What do the screens show for `Cc1cc(-c2n[nH]c(=S)n2/N=C/C=C/c2ccccc2)n[nH]1`?
VACV mCherry inh: -19.9%; Vaccinia Venus: -8.8%

What do the screens show for `CC(C)(C)C(=O)OC[N+](C)(C)CCOC(=O)C(O)(c1ccccc1)C1CCCC1` (stereo unspecified)?
VACV mCherry inh: -18.3%; Vaccinia Venus: -9.0%

What do the screens show for `COc1ccccc1N1CCN(C(=O)c2ccc(CN3CCOCC3)cc2)CC1`?
VACV mCherry inh: 0.0%; Vaccinia Venus: -15.7%

Results for Cc1ccccc1-c1cc(C(=O)NCc2ccco2)n(CC2CC(c3cccnc3)=NO2)n1 (stereo unspecified) ?
VACV mCherry inh: -5.7%; Vaccinia Venus: inconclusive

What do the screens show for `CCOC(=O)C1(C)CCN1C(=O)COc1ccc(C(C)(C)C)cc1` (stereo unspecified)?
VACV mCherry inh: 27.3%; Vaccinia Venus: 8.8%

Results for O=C1NC[C@H](Cc2ccc(O)cc2)N(C[C@H]2CCCN2C[C@H](Cc2ccc(O)cc2)N2C[C@H](Cc3ccc(O)cc3)N(CCc3ccccc3)C(=O)C2=O)C1=O ?
VACV mCherry inh: 7.3%; Vaccinia Venus: 11.2%

How did CCOc1ccc(OCC)c(NC(=O)CN2CCN(C(=O)c3ccco3)CC2)c1 do in these assays?
VACV mCherry inh: -20.6%; Vaccinia Venus: -18.0%

What do the screens show for `Cc1ccnc(NC(=O)C2CCN(S(=O)(=O)c3cccc4nonc34)CC2)c1`?
Vaccinia Venus: -21.6%

Results for Cc1cc(-c2nc3ncccc3o2)ccc1NC(=S)NC(=O)c1ccco1 ?
VACV mCherry inh: inactive; Vaccinia Venus: -18.7%

How did CC1(c2nnc(-c3ccc(F)cc3)o2)CC(c2cccc(Cl)c2)=NO1 (stereo unspecified) do in these assays?
VACV mCherry inh: inactive; Vaccinia Venus: -17.7%

How did CCC(C)(C)NC(=O)CN(C(=O)CCC(=O)Nc1nccs1)c1ccc2c(c1)OCO2 do in these assays?
VACV mCherry inh: -20.3%; Vaccinia Venus: -0.9%

How did NC(=O)CC[C@H](NC(=O)c1ccc(Cl)cc1)C(=O)NNC(=O)COc1cccc(Br)c1 do in these assays?
VACV mCherry inh: -11.7%; Vaccinia Venus: -4.0%

How did CCOC(=O)c1cc(-c2ccc(N3CCOCC3)cc2)nn1-c1ccccc1C(=O)O do in these assays?
VACV mCherry inh: -10.7%; Vaccinia Venus: 7.2%

Results for C/C(=N\NC(=O)CN1CCCCC1)c1ccccc1O ?
VACV mCherry inh: inconclusive; Vaccinia Venus: -26.3%

Results for Cc1ccc(/C=N/N2CCN(Cc3ccc(C)cc3)CC2)cc1 ?
VACV mCherry inh: -3.7%; Vaccinia Venus: -12.4%

Results for O=C(c1ccccc1)c1ccc(OCC(O)CN2CCCC2)cc1 (stereo unspecified) ?
VACV mCherry inh: inactive; Vaccinia Venus: -3.6%

What do the screens show for `COc1cc(/C=N/n2cnc3scc(-c4cccs4)c3c2=O)cc(OC)c1OC`?
VACV mCherry inh: inconclusive; Vaccinia Venus: -15.9%

Results for O=C(COc1ccc2ccccc2c1)NCC1CCCO1 (stereo unspecified) ?
VACV mCherry inh: -5.8%; Vaccinia Venus: 3.1%

Results for COc1ccc(OC)c2[nH]c(=O)c(CCNC(=O)C(C)(C)C)cc12 ?
VACV mCherry inh: -11.9%; Vaccinia Venus: 0.7%

Results for CCOC(=O)c1c(C)[nH]c(N=Nc2ccc(C)cc2)c1C ?
VACV mCherry inh: -13.4%; Vaccinia Venus: -18.7%

Results for C[N+](C)(CC#Cc1ccccc1)CC(=O)c1ccc(Cl)cc1 ?
VACV mCherry inh: -6.0%; Vaccinia Venus: -7.6%

Results for CCOC(=O)c1c(C)c(C(=O)Nc2cc(F)ccc2F)c(C)n1C ?
VACV mCherry inh: -18.0%; Vaccinia Venus: -26.1%

What do the screens show for `CC(C)NC(=O)Nc1ccc2c(c1)C(=O)N([C@@H](C)CO)C[C@H](C)[C@H](CN(C)S(=O)(=O)c1ccccc1)OCCCC[C@H](C)O2`?
VACV mCherry inh: inactive; Vaccinia Venus: -11.1%

What do the screens show for `CSc1ncccc1C(=O)OCC(=O)N1CCN(S(=O)(=O)c2ccc(C)cc2C)CC1`?
VACV mCherry inh: -25.8%; Vaccinia Venus: -14.8%

How did CC(=O)Nc1ccc(/C=N/NC(=O)CNS(=O)(=O)c2ccccc2)cc1 do in these assays?
VACV mCherry inh: -25.4%; Vaccinia Venus: -3.5%

How did CCN(CC(=O)Nc1c(F)cccc1F)C(=O)c1ccc(NC(=O)CC2SC(N3CCCC3)=NC2=O)cc1 (stereo unspecified) do in these assays?
VACV mCherry inh: inactive; Vaccinia Venus: -11.8%

Results for Cc1cc(C(=O)COC(=O)/C=C/c2ccc(F)cc2)c(C)n1C ?
VACV mCherry inh: -14.2%; Vaccinia Venus: -4.4%

Results for CCN1C(=O)/C(=C/C=C2\N(CC)c3cc(S(=O)(=O)N(C)C)ccc3N2c2ccccc2)SC1=S ?
VACV mCherry inh: -15.7%; Vaccinia Venus: 426.0%[activator]

How did CCc1ccc(NC(=O)Cn2ccn(-c3cccc(Cl)c3)c(=O)c2=O)cc1 do in these assays?
VACV mCherry inh: 4.7%&-5.9%; Vaccinia Venus: -0.5%&-10.3%

Results for Cc1ccc(C(c2sc3nc(C)nn3c2O)N2CCN(CCO)CC2)cc1 (stereo unspecified) ?
VACV mCherry inh: -4.1%; Vaccinia Venus: -13.6%

How did CC(=O)c1ccc(Cl)c(Cl)c1Cl do in these assays?
VACV mCherry inh: -4.3%; Vaccinia Venus: -15.9%

Results for CC(C)c1nc(SCC(=O)N2CCCCCC2)c2c(=O)n(C)c(=O)n(C)c2n1 ?
VACV mCherry inh: inactive; Vaccinia Venus: -6.0%

Results for O=C(CSc1nnc(-c2ccc(C(F)(F)F)cn2)o1)Nc1cccc(Cl)c1 ?
VACV mCherry inh: inactive[7.34 µM]; Vaccinia Venus: -4.8%[7.34 µM]

How did CC1(C(=O)NS(=O)(=O)c2cccs2)CCN1C(=O)CC1CCCC1 (stereo unspecified) do in these assays?
VACV mCherry inh: -2.8%; Vaccinia Venus: 23.8%

What do the screens show for `COc1ccc(CNC(=O)C[C@H]2C[C@H](C(=O)N3CCCCC3)[C@@]3(CCc4ccccc4)c4[nH]c5cc(-c6ccco6)ccc5c4CCN3C2=O)cc1OC`?
VACV mCherry inh: -1.5%; Vaccinia Venus: -23.8%

Results for Cc1cc(C)c(N=Cc2c(O)[nH]c(=O)[nH]c2=O)c(C)c1 ?
VACV mCherry inh: -0.6%; Vaccinia Venus: -0.3%

How did CN(C)C(=O)CCc1ccc2c3c([nH]c2c1)[C@]1(CCC2CCCC2)[C@@H](C(=O)N2CCOCC2)C[C@H](CC(=O)NC(C)(C)C)C(=O)N1CC3 do in these assays?
VACV mCherry inh: inactive; Vaccinia Venus: -19.5%

How did O=C(CSc1ccc(-c2ccccc2)nn1)N1CCN(c2ccccc2)CC1 do in these assays?
VACV mCherry inh: inactive; Vaccinia Venus: -8.4%

What do the screens show for `COc1ccc(N2CCN(C(=O)c3ccccc3NC(=O)c3ccccc3)CC2)cc1`?
VACV mCherry inh: -14.3%; Vaccinia Venus: -26.3%

How did C=CCN([C@H](C(=O)OC)C(C)C)S(=O)(=O)CCNCc1ccccc1 do in these assays?
VACV mCherry inh: -8.5%; Vaccinia Venus: -15.7%&-14.9%

How did CC(=O)Oc1c(C)c(C)c2c(c1C)CCC(C)(CCCC(C)CCCC(C)CCCC(C)C)O2 (stereo unspecified) do in these assays?
VACV mCherry inh: -15.7%&-13.2%; Vaccinia Venus: -17.9%&-4.0%

What do the screens show for `Cc1cc(=O)oc2c(C)c(OC(C)C(=O)NC(Cc3c[nH]c4ccc(O)cc34)C(=O)O)ccc12` (stereo unspecified)?
VACV mCherry inh: -4.1%; Vaccinia Venus: -0.1%

Not a retest: 5 of the compounds above.
How did O=C(CSc1ccc(-c2ccccc2)nn1)N1CCN(c2ccccc2)CC1 do in these assays?
VACV mCherry inh: inactive; Vaccinia Venus: -8.4%

What do the screens show for `COc1ccc(N2CCN(C(=O)c3ccccc3NC(=O)c3ccccc3)CC2)cc1`?
VACV mCherry inh: -14.3%; Vaccinia Venus: -26.3%

How did C=CCN([C@H](C(=O)OC)C(C)C)S(=O)(=O)CCNCc1ccccc1 do in these assays?
VACV mCherry inh: -8.5%; Vaccinia Venus: -15.7%&-14.9%

How did CC(=O)Oc1c(C)c(C)c2c(c1C)CCC(C)(CCCC(C)CCCC(C)CCCC(C)C)O2 (stereo unspecified) do in these assays?
VACV mCherry inh: -15.7%&-13.2%; Vaccinia Venus: -17.9%&-4.0%

What do the screens show for `Cc1cc(=O)oc2c(C)c(OC(C)C(=O)NC(Cc3c[nH]c4ccc(O)cc34)C(=O)O)ccc12` (stereo unspecified)?
VACV mCherry inh: -4.1%; Vaccinia Venus: -0.1%

Following part:
How did COc1cccc(CNC(=O)CCS(=O)(=O)Cc2ccc(C)cc2)c1 do in these assays?
VACV mCherry inh: -27.8%; Vaccinia Venus: inconclusive

Results for COc1ccc(C(C)(NC(C)=O)c2nc(-c3cccc(C#N)c3)cs2)cc1 (stereo unspecified) ?
VACV mCherry inh: 0.7%; Vaccinia Venus: 2.4%

Results for Cc1ccc(C)c(N(C)C(=O)c2cn(C)c(=O)c3ccccc23)c1 ?
VACV mCherry inh: 1.9%; Vaccinia Venus: 3.9%

How did COC(C[C@H]1O[C@H]1C(=O)[C@H](C)OCc1ccccc1)OC do in these assays?
VACV mCherry inh: inactive; Vaccinia Venus: -2.5%

Results for CCOC(=O)C1(Cc2cccc(Cl)c2)CCCN(C(=O)c2cc(C)[nH]n2)C1 (stereo unspecified) ?
VACV mCherry inh: -12.8%; Vaccinia Venus: -9.9%

What do the screens show for `CC(C)(C)c1ccc(OCC(=O)OCCNC(=O)c2cccnc2)cc1`?
VACV mCherry inh: -8.0%; Vaccinia Venus: 4.8%

What do the screens show for `CC(Cn1cncn1)C(=O)N1CCN(S(=O)(=O)c2ccccc2)CC1` (stereo unspecified)?
VACV mCherry inh: 7.2%; Vaccinia Venus: 2.3%

Results for C=CCNC(=O)c1ccc(Sc2ccc(C)cc2)c([N+](=O)[O-])c1 ?
Vaccinia Venus: inconclusive

Results for CCCCOc1ccc(OCCCC)c2c1NC1(N2)C(=O)N(C(C)=O)c2ccccc21 ?
VACV mCherry inh: -2.2%; Vaccinia Venus: 0.7%
